Bioassay records: PubChem BioAssay, National Center for Advancing Translational Sciences (NCATS)
HPGD inh – inhibitors of human 15-hydroxyprostaglandin dehydrogenase (HPGD). P15428. purified HPGD, NADH fluorescence kinetic, PGE2 substrate. Potency, µM, for the others: at the top dose activity change, negative = inhibition, most hits filed as inhibitors. 4.3% of 150,000 active. AID 894; active = well fitted inhibition curve with a large enough effect (not every such curve was filed as active); inconclusive = small, poorly fitted or top-dose-only effect, or another doubt; inactive = no such curve, though single readings can be large or run the other way;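 also: top concentration of the series not given in the record; plate controls included wells without enzyme; inactives centre near -10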
Target sequence (P15428 whole entry, looked up): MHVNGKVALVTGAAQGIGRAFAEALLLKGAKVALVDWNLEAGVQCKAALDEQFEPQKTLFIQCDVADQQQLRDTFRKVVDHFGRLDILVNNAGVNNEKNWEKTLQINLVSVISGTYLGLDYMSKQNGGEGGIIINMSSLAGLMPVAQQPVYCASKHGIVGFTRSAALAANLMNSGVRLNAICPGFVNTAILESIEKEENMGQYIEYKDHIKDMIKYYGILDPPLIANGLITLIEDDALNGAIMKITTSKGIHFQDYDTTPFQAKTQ
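NADH formation kinetics: reaction with 30 uM PGE2 and 1 mM NAD+ (final), 20 nM enzyme, Tris-HCl pH 8 with Tween 20, after 15 min compound preincubation at room temperature. Fluorescence change, last versus first of five reads.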
Starred values were filed as active, the others as inactive; ? = inconclusive. % is scaled to controls: 0 for no effect and ±100 for the full control effect; potency is read from the fitted curve at half-maximal effect.

HPGD inh	molecule
-6%	CC(Oc1ccc(Cl)cc1Cl)C(=O)NC1=NN(c2ccccc2)C(=O)C1 (stereo unspecified)
-9%	O=C(Nc1ccc(Cl)cn1)c1cccc(S(=O)(=O)N2CCOCC2)c1
2%	COc1ccccc1OCCOCCOc1ccccc1Cl
0%	Cc1[nH]c2ccc(F)cc2c1CCNC(=O)C1CCCCC1C(=O)OCC(F)(F)F (stereo unspecified)
-6%	CCSC1=N/C(=C\c2cccc(F)c2)C(=O)S1
-16%	Cc1ccc2c(COC(=O)CNC(=O)c3ccccc3)cc(=O)oc2c1
0%	O=C(CSCc1ccc([N+](=O)[O-])cc1)NN=C1CCCCCC1
-5%	CC/C=C\C/C=C\C/C=C\C/C=C\C/C=C\C/C=C\CCC(=O)O[C@H](COCCCCCCCCCCCCCCCC)COP(=O)([O-])OCC[N+](C)(C)C

More results.
HPGD inh	molecule
-7%	O=C(Nc1nc(-c2ccccc2)cs1)c1cccnc1
?	Cc1ccc(C(=O)Oc2ccc(C(=O)COC(=O)C3CC(=O)N(Cc4ccco4)C3)cc2)cc1 (stereo unspecified)
?	O=C1CC(Sc2nnc(-c3ccccc3O)o2)C(=O)N1c1ccccc1 (stereo unspecified)
1%	COc1ccc(NC(=O)c2cc(OC)c(OC)cc2OC)c(S(=O)(=O)N2CCOCC2)c1
-15%	CC(C)C[C@H](NC(=O)OC(C)(C)C)c1n[nH]c(=S)n1N
-14%	CCOc1ccccc1NC(=O)CN(c1nccs1)S(=O)(=O)c1ccc(N)cc1
-2%	CC(NCc1ccco1)C(=O)N1CCc2ccccc2C1 (stereo unspecified)
-16%	CCn1c(SCC(=O)NCc2ccco2)nc2c(c1=O)SC(C)C2 (stereo unspecified)

(continued)
HPGD inh	molecule
-26%	CCOC(=O)c1sc2nccc(N(C)C)c2c1N=CNOCc1c(F)cccc1Cl
18µM*	COc1cc(NC(=S)NCc2cccs2)cc(OC)c1
?	COc1c(F)c(F)c(C(=O)Nc2ccc3oc(-c4ccncc4)nc3c2)c(F)c1F
-3%	CC(=O)NCCOC(=O)Nc1cccnc1
-8%	Cc1ccc(S(=O)(=O)N2CCOCC2)cc1C(=O)NCc1cn2ccsc2n1
?	Cc1ccc2nc(C(F)OC(F)(F)F)[nH]c2c1 (stereo unspecified)
-13%	O=C(Nc1cccnc1)/C(N=Nc1ccc(Cl)c(C(F)(F)F)c1)=C(\O)c1ccccc1
-8%	Cn1nc(C(F)(F)F)cc1C(=O)NC1CCCCCC1

Carrying on:
HPGD inh	molecule
-16%	Cc1nn(Cc2ccccc2)c2c1C(c1cccc(Cl)c1)C(C#N)=C(N)O2 (stereo unspecified)
-5%	COC(=O)c1ccc(NC(=O)C(=O)NCC2CCCO2)cc1 (stereo unspecified)
?	COc1cccc2[nH]c(-c3ccccn3)nc12
-4%	Cc1ccc([N+](=O)[O-])cc1-c1ccc(/C=N\n2nnnc2N)o1
-1%	CS(=O)(=O)N(CC(=O)NCc1ccccn1)Cc1ccc(Cl)cc1
-28%	O=C(COc1ccc(Br)cc1)c1ccc2c(c1)CCCC2
0%	O=C(Nc1ccccc1)N1CCN(c2ccc(F)cc2)CC1
?	CN1CCc2nc3sc(C(=O)C45CC6CC(CC(C6)C4)C5)c(N)c3cc2C1

(more compounds)
HPGD inh	molecule
-16%	CC1=CC(C)(C)N(C)C(=O)N1c1ccc(Cl)cc1
-16%	Cc1cc([N+](=O)[O-])cnc1NC(C)c1ccccc1 (stereo unspecified)
?	COC(=O)c1[nH]c2cc(OC)c(OC)cc2c1NC(=O)Oc1ccccc1
?	CC1CN(C(NC(=O)C(C)(C)C)C(Cl)(Cl)Cl)CC(C)O1 (stereo unspecified)
-5%	Cc1ccc(N2C(=O)c3ccc(C(=O)N4CCOCC4)cc3C2=O)cc1C
-14%	O=C(Nc1cc(S(=O)(=O)N2CCOCC2)ccc1O)c1ccc(NS(=O)(=O)c2ccc(Cl)s2)cc1
-3%	COc1ccc(S(=O)(=O)N2CCCC(C(=O)NCc3ccccn3)C2)cc1 (stereo unspecified)
0%	O=C(Nc1cccc(C(F)(F)F)c1)c1cc(-c2ccc(F)cc2)on1

Additional records:
HPGD inh	molecule
0%	COc1ccc(OCC(O)Cn2c(=N)n(Cc3ccccc3)c3ccccc32)cc1 (stereo unspecified)
-9%	c1ccc(-c2noc(-c3cccs3)n2)nc1
-7%	O=C(CSc1nc2ccccc2s1)NCCOc1ccc(Cl)cc1
-5%	COC(=O)c1c(NC(=O)CN2CCCC(C)C2)c2c(C)cccc2n1C (stereo unspecified)
-5%	CCN(Cc1ccccc1)C(c1cccs1)c1nnnn1C1CCCCC1 (stereo unspecified)
-10%	CC(=O)C1=C(C)N(Cc2ccco2)C(=O)C1(NC(=O)C1CCCCC1)C(F)(F)F (stereo unspecified)
?	CCOc1cc2[nH]c(=O)n(CCCC(=O)NCc3ccc(OC)cc3)c(=O)c2cc1OCC
-5%	O=C(CN(C(=O)CNS(=O)(=O)c1ccccc1)c1ccc2c(c1)OCCO2)NCc1ccco1

Next structures:
HPGD inh	molecule
?	COc1cccc(NC(=O)C(OC(=O)/C=C/c2ccc3c(c2)OCO3)c2ccccc2)c1 (stereo unspecified)
-28%	CCCCCCCCCCCCCCCC(=O)N[C@H](CN1CCOCC1)[C@H](O)c1ccccc1
-16%	CC(=O)/C(=N/Nc1ccc(C)cc1)Sc1nnc(CCc2ccccc2)n1-c1ccccc1
-8%	CC/C=C\C/C=C\C/C=C\C/C=C\C/C=C\C/C=C\CCC(=O)NCCCC(=O)O
-3%	CCNC(=O)NC(=O)C(C)OC(=O)CCCSc1nc2ccccc2s1 (stereo unspecified)
-16%	CCCc1[nH]n(-c2ccc(F)cc2)c(=O)c1C=Nc1cccc(F)c1
?	COc1cccc(-c2cc3c(-n4cccc4)ncnc3o2)c1
14µM*	O=[N+]([O-])c1cc(-c2nnc(Nc3ccccc3)c3ccccc23)ccc1N1CCOCC1

Next part
HPGD inh	molecule
-17%	COc1ccc(-c2cc(C(=O)Nc3ccccc3SC)no2)cc1
?	Cc1cccc(Cn2c(C(=O)OC(C)C)cc3c2ccn3C)c1
-23%	CSc1ncccc1C(=O)OCC(=O)NC(=O)NCCC(C)C
25µM*	CCCN(CCC)C(=O)COc1cc(=O)n(CC)c2ccccc12
-25%	O=C1CSc2ccccc2N1Cc1ccc(F)cc1
?	COc1ccc(-c2nnc(SCc3nnc(-c4ccccc4)o3)n2C)cc1OC
-7%	CCNC(=O)C1CC(=O)N(Cc2ccc(F)cc2)C(=Nc2ccc(OC)cc2)S1 (stereo unspecified)
-1%	C[C@]12C=CC(=O)C=C1CC[C@@H]1[C@@H]2C(=O)C[C@@]2(C)[C@H]1CC[C@]2(O)C(=O)CO

The list continues:
HPGD inh	molecule
-7%	O=C(c1ccccc1F)N(Cc1ccccc1)C1CCS(=O)(=O)C1 (stereo unspecified)
-17%	Cc1cc(=O)oc(C)c1C(=O)NCc1ccc(F)cc1
-4%	CSc1cc(-c2ccc(Cl)cc2)c(C(=O)NC(C)C)s1
-19%	C=CCNC(=O)c1onc(CSc2cccc(OCC)c2)c1C(=O)O
-13%	O=C(COc1ccc(S(=O)(=O)N2CCCC2)cc1Cl)N1CCN(c2ccccc2)CC1
-14%	C=C[C@](C)(O)CCC=C(C)C
-6%	Cc1cc(/N=C/C=C2\N(C)c3ccccc3C2(C)C)n(CCC#N)n1
4%	CCOC(=O)c1ccc([N+](=O)[O-])cc1NC(C)=O

Next entries
HPGD inh	molecule
4%	COc1cc2c(cc1OC)C(c1ccsc1)CC(=O)N2 (stereo unspecified)
-3%	Cc1cccc(N(CC(=O)N2CCOCC2)S(C)(=O)=O)c1C
-16%	NC(=O)CC1Nc2cccc3cccc(c23)NC1=O (stereo unspecified)
?	CSc1nc(N)nc(SCC(=O)Nc2ccc(Cl)cc2)c1C#N
-11%	COC(=O)CN(C(=S)Nc1ccc(F)cc1)C1CC(=O)N(c2ccccc2)C1=O (stereo unspecified)
-16%	CSc1nc(Cl)c(Cc2ccc(OCC(C)C)cc2)c(N2CCOCC2)n1
-9%	COc1ccc(-c2n[nH]c(C)c2-c2cnn(-c3ccccc3)c2)c(O)c1
-16%	Cc1cccc(N2CCN(C(c3ccccc3)c3nnnn3C(C)(C)C)CC2)c1C (stereo unspecified)

(more compounds)
HPGD inh	molecule
-17%	COc1cccc(C(=O)N2C(C(=O)O)CSC2c2ccccc2Cl)c1 (stereo unspecified)
-13%	CCCSc1nnc(Cn2c(=O)sc3ccccc32)n1-c1ccccc1
-19%	COc1ccccc1/C=N/NC(=O)c1ccc(=O)n(C)c1
-10%	CCCCN1CC(COc2ccccc2)OC1=O (stereo unspecified)
?	O=C(O)CCC(=O)Nc1nc2nc(-c3ccccc3)cc(-c3ccccc3)n2n1
-6%	COc1ccc(CCNC(=O)CSc2cc(=O)[nH]c(N)n2)cc1OC
-4%	Cc1ccccc1C1CC(=O)Oc2cc(C)c(Br)c(C)c21 (stereo unspecified)
-5%	COc1ccc(/C=C/C(=O)NCC(=O)N/N=C/c2cc(Br)ccc2OC)cc1

More compounds.
HPGD inh	molecule
-5%	COc1ccccc1NC(=O)CCC(=O)Nc1ccccc1OC
-18%	CCc1nc2sc3c(c2c(=O)o1)CCCC3
-19%	CCCN(CCC)c1nc(N)c(C#N)c(CC#N)c1C#N
-13%	COC(=O)c1sccc1N/N=C/c1cccc(Oc2ccccc2)c1
-8%	CSc1nc2n(n1)C(c1cccc(F)c1)C(C(=O)Nc1ccc(C)cc1C)=C(C)N2 (stereo unspecified)
-4%	CC1(C)Cc2cccc(OCC(=O)N3CCN(S(=O)(=O)c4ccccc4)CC3)c2O1
?	N#CC1=C(N)NC(SCC(=O)c2ccc(Cl)cc2)=C(C#N)C12CCCC2
-18%	CCOc1ccc(C2c3c(oc4ccccc4c3=O)C(=O)N2CCCN2CCOCC2)cc1 (stereo unspecified)

Overlap with the part before: four compounds, followed by the next part.
HPGD inh	molecule
-8%	CSc1nc2n(n1)C(c1cccc(F)c1)C(C(=O)Nc1ccc(C)cc1C)=C(C)N2 (stereo unspecified)
-4%	CC1(C)Cc2cccc(OCC(=O)N3CCN(S(=O)(=O)c4ccccc4)CC3)c2O1
?	N#CC1=C(N)NC(SCC(=O)c2ccc(Cl)cc2)=C(C#N)C12CCCC2
-18%	CCOc1ccc(C2c3c(oc4ccccc4c3=O)C(=O)N2CCCN2CCOCC2)cc1 (stereo unspecified)
-12%	COCCN1C(=O)C(=O)/C(=C(/O)c2ccc(OC(C)C)cc2)C1c1cccnc1 (stereo unspecified)
3%	O=C(O)Cc1ccc(NC(=S)Nc2cccc(Cl)c2Cl)cc1
-6%	Cc1c(NC(=O)/C=C/C(=O)O)cccc1[N+](=O)[O-]
2%	CC(=O)N1CCC2(CC1)CCN(c1ccccc1)CC2
-8%	CCOC(=O)COc1nc(C)c(Br)c(OC)n1
-11%	COc1nc(-c2ccccc2Cl)ccc1C#N
?	Cc1cc2cc(CN(Cc3ccc4c(c3)OCO4)C(=O)c3ccco3)c(=O)[nH]c2cc1C
-10%	COc1cc2c(cc1OC)-c1nnnn1C(C)(C)C2

Looked up above.
In HPGD inh, O=C(O)Cc1ccc(NC(=S)Nc2cccc(Cl)c2Cl)cc1 shows 3%
In HPGD inh, COc1nc(-c2ccccc2Cl)ccc1C#N shows -11%

New compounds follow
HPGD inh	molecule
-18%	Cc1nnc(SCc2cccc(Oc3ccccc3)c2)n1N
0%	CN(C)S(=O)(=O)c1ccc(C(=O)Nc2cccnc2)cc1
-13%	CCOC(=O)N1CCC(NC(=O)C2CCCCN2S(=O)(=O)c2ccc(F)cc2)CC1 (stereo unspecified)
?	C/C(=N\NC(=O)c1c(Br)c(C)nn1C)c1ccc(NC(=O)c2ccoc2C)cc1
5%	Nn1c(Cc2cccc3ccccc23)nnc1SCC(=O)NC1CCS(=O)(=O)C1 (stereo unspecified)
?	CCOC(=O)Cc1c(C)nc2cc(-c3ccc(C(C)(C)C)cc3)[nH]n2c1=O
-4%	Brc1ccc(OCCOCCN2CCOCC2)cc1
-21%	COc1ccccc1C1CC(=O)NC(C)=C1C(=O)OCC1CCCO1 (stereo unspecified)

Next part.
HPGD inh	molecule
?	COc1ccc(-c2oc(NC(=O)CSc3nncn3C)c(C#N)c2-c2ccc(OC)cc2)cc1
5%	CC(=O)NCCNC(=O)CCNC(=O)c1ccc(Cl)cc1
-4%	Cc1ccc(NC(=O)CSc2nnc(-c3ccncc3)n2C)cc1C
-15%	O=C1OC(OC(=O)c2ccccc2Br)C(N2CCOCC2)=C1Cl (stereo unspecified)
-4%	Cn1cccc1Cc1nnc(SCC(=O)Nc2ccc3c(c2)OCO3)n1CCc1ccccc1
-5%	CC(C)c1c(O)nc(SCCN(C)C)[nH]c1=O
-13%	COC(=O)c1cccc(NC(=O)CSc2ncn[nH]2)c1
-5%	COc1ccc(CCNS(=O)(=O)c2cccc(S(=O)(=O)N3CCCC3)c2)cc1OC

Laid out differently: entries from further up.
smiles | HPGD inh
COc1ccc(CCNS(=O)(=O)c2cccc(S(=O)(=O)N3CCCC3)c2)cc1OC | -5%
CC(C)c1c(O)nc(SCCN(C)C)[nH]c1=O | -5%
CC(=O)NCCNC(=O)CCNC(=O)c1ccc(Cl)cc1 | 5%
Cn1cccc1Cc1nnc(SCC(=O)Nc2ccc3c(c2)OCO3)n1CCc1ccccc1 | -4%
COC(=O)c1cccc(NC(=O)CSc2ncn[nH]2)c1 | -13%

An excerpt from above in order of the HPGD inh value, largest number first.
HPGD inh	molecule
5%	CC(=O)NCCNC(=O)CCNC(=O)c1ccc(Cl)cc1
-4%	Cc1ccc(NC(=O)CSc2nnc(-c3ccncc3)n2C)cc1C
-5%	CC(C)c1c(O)nc(SCCN(C)C)[nH]c1=O

(next part)
HPGD inh	molecule
-11%	O=C(CCCSc1nc2ccccc2[nH]1)NCc1ccc(Cl)cc1
-8%	Cc1ccc2[nH]c(=O)c(CN(Cc3ccccc3)Cc3nnnn3C3CCCC3)cc2c1
-20%	COC(=O)c1ccccc1NC(=O)Nc1cccs1
-13%	CC1CN(S(=O)(=O)c2cccc(C(=O)OCC(=O)c3cccs3)c2)CC(C)O1 (stereo unspecified)

These rows are one share of the data; rates above refer to the full screens.
